KCNQ2 pot: KCNQ2 (rat) channel potentiation. O88943. CHO-K1 KCNQ2, FluxOR thallium flux fluorescence; stronger effect = higher value. B-score at 10 µM. hit rate 0.54% among 310,000. AID 2239;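 active = fluorescence ratio B-score at least 3 SD of library B-scores, with initial fluorescence B-score within 3 SD, cut at about 5.3 in these data; same plate scores as AID 2156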;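 note: B-score of peak minus minimum over baseline fluorescence ratio after K+ and Tl+ stimulus; positive B-score means potentiation of KCNQ2 with more thallium influx and brighter signal; only the inactives scoring about 0 or higher are listed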
Target sequence (O88943 whole entry, looked up): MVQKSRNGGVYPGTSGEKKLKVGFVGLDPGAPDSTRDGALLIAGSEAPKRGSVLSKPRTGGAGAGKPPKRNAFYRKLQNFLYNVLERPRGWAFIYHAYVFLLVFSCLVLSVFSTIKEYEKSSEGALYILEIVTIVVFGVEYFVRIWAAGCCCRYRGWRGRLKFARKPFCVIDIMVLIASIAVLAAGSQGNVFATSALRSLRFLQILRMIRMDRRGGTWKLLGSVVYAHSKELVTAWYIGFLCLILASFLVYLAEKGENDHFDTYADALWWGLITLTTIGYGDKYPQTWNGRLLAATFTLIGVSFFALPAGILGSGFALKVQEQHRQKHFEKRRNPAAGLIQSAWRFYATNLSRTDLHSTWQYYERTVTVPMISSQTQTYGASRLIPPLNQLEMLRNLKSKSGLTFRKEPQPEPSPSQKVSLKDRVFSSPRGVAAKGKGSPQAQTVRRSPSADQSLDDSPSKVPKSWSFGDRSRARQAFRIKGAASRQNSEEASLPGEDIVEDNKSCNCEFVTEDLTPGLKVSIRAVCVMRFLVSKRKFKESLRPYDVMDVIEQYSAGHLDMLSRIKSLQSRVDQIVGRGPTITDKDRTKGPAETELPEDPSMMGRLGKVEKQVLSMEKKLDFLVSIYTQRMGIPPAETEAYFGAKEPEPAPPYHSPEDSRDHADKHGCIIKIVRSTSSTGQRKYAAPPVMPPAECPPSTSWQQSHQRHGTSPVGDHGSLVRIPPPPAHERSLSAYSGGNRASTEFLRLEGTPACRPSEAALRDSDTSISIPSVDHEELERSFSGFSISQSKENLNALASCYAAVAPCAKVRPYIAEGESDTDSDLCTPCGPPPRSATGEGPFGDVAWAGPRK
KCNQ2 pot baseline: second read-out of KCNQ2 pot, no call of its own (marks repeat the call); B-score; compound at 10 µM; measured here: initial fluorescence intensity artifact check;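 brightness before thallium and not channel activity; 0 = typical well and far values either way flag optical interference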
* = called active by the depositor; & = joins results of further samples. These rows are one share of the data; the hit share may differ from the screen's.

SMILES	KCNQ2 pot	KCNQ2 pot baseline
O=C(Cn1cc(C(F)(F)F)ccc1=O)NCCc1ccc(Cl)cc1Cl	0.15	-1.22
COc1ccc(NC2=NCCCCC2)cc1	1.15	-0.56
CCN(CC)S(=O)(=O)c1cccc(C(=O)NN2Cc3ccccc3C2=N)c1	1.07	0
COc1ccc(CCn2c(=N)c(C(=O)NCC3CCCO3)cc3c(=O)n4ccccc4nc32)cc1 (configuration not stated)	1.71	-0.2
COc1ccc(N(CC(=O)Nc2cc(OC)ccc2OC)S(=O)(=O)c2c(C)nn(C)c2C)cc1	0.58	0.61
COc1ccc(CNc2ccc([N+](=O)[O-])cn2)cc1	0.36	-2.41
O=C(c1ccccc1)c1ccc(C(=O)N2CCN(c3ccc(F)cc3)CC2)o1	2.01	-0.58
CC1(C)CC2(CCO1)OC(=O)CC2C(=O)NCCc1ccccc1 (configuration not stated)	1.18	-0.16
CN(C)c1ccc(-c2nnn(CC(=O)Nc3ccc4c(c3)OCCO4)n2)cc1	1.21	2.32
Cn1c(SCCN2CCCCC2)nnc1-c1ccccc1Br	1.37	0.05
COc1cc(C(=O)NCCCNC(=O)c2cc(OC)c(OC)c(OC)c2)cc(OC)c1OC	0.89	-1.28
CCCc1cc(=O)[nH]c(SCC(=O)NC)n1	0.06	0.18
O=C(CSc1nc2ccccc2c(=O)n1CC1CCCO1)Nc1ccc(F)cc1 (configuration not stated)	0.73	0.61
Cc1nc(NC(=O)COc2ccccc2)sc1C(=O)Nc1cccc(Cl)c1	0.94	0.2
NC(=O)CCC(NC(=S)Nc1ccccc1)C(=O)O (configuration not stated)	0.31	1.21
CN(C)c1ccc(/C=C(/NC(=O)c2ccccc2)C(=O)NCCN2CCOCC2)cc1	2.59	-0.95
Cc1ccc(OCCNC(=O)/C=C/c2ccc([N+](=O)[O-])cc2)cc1C	0.14	0.48
COc1ccc(CNC(=O)CCCn2nc(C)n3c(cc4sccc43)c2=O)cc1	2.47	-0.22
Cc1cccc(CCNC(=O)CCc2nnc(CCc3ccccc3)o2)n1	0.09	0.01
COc1ccccc1Nc1nc(C)cs1	0.91&0.61	-0.56&0.39
CCCNC(=O)c1ccc(COc2ccc(Cl)cc2)o1	3.32	0.08
COc1ccc(Cc2cnc(N)s2)cc1	0.16	-0.45
CCCc1nnc(NC(=O)C2CCCO2)s1 (configuration not stated)	1.5	-0.92
Cc1ccc(/C=N/N=C2/NC(=O)C(CC(=O)N3CCOCC3)S2)cc1 (configuration not stated)	0.58	-0.12
COc1ccc(OCc2nnc(SC(C)C(=O)Nc3nccs3)n2-c2ccccc2)cc1 (configuration not stated)	1.36	0.43
COc1cc(OC)c(OC)cc1/C=N/Nc1ccc(Cl)nn1	0.08	-0.74
O=C(CCN1CCOCC1)N1CCc2c([nH]c3ccccc23)C1c1cccc(Cl)c1 (configuration not stated)	0.3	-0.36
CC1CN(CCOc2ccccc2[N+](=O)[O-])CC(C)O1 (configuration not stated)	1.56	-0.64
CCc1nn(CC(=O)N2CCN(C)CC2)c(=O)c2cccn12	0.82	1.01
Cc1ccc(Nc2nc(N)nc(CSc3nccn3C)n2)cc1	1.7	-0.66
CCN=C1SC(CC(=O)NCCc2ccc(OC)cc2)C(=O)N1CC (configuration not stated)	1.54	1.22
c1ccc(-c2cc3c(N4CCCC4)ncnc3s2)cc1	1.46	-2.25
CCn1c(=O)c(C(=O)Nc2ncccc2C)c(O)c2ccccc21	0.97	-0.91
COc1ccc(S(=O)(=O)N(C)c2ccc(C(=O)Nc3cccnc3)cc2)cc1	2.97	0.95
COCCN(C(=O)COC(=O)Cc1cccc(OC)c1)c1c(N)n(CC(C)C)c(=O)[nH]c1=O	2.43	-0.57
Nc1cc(=O)[nH]c(SCc2ccc(Cl)cc2)n1	1.44	0.55
O=C(O)CCC(=O)N1CCc2c([nH]c3ccccc23)C1C(F)(F)F (configuration not stated)	0.83	-2.14
O=C(COC(=O)COc1ccccc1)Nc1ccccc1OC(F)F	0.58	-0.61
Cc1cc(C)nc(SC2CCCCC2O)n1 (configuration not stated)	0.91	-1.32
CCOC(=O)c1[nH]c2cc3c(cc2c1NC(=O)CN1CCC(C)CC1)OCO3	0.93	1.21
COc1cccc(CC(NC(C)=O)C(=O)NC2CCN(c3c4c(nc5ncnn35)CCC4)CC2)c1OC (configuration not stated)	0.15	-0.68
Cc1ccccc1CSc1nc2n(n1)C(c1cccs1)C1=C(CCCC1=O)N2 (configuration not stated)	0.55	0.44
NC(=O)C1=C[C@@H](c2csc3ccccc23)C[C@@H](OCc2ccc(CO)cc2)O1	0.84	-0.02
CCCN1CCN(CCCNC(=O)c2ccc3nc(N4CCC(C)CC4)sc3c2)CC1	0.81	-0.22
O=C(c1ccc([N+](=O)[O-])cc1)N(c1ccccn1)c1ccccn1	1.73	-0.11
COc1cc(C2/C(=C(/O)c3ccc(F)cc3)C(=O)C(=O)N2CCCC(=O)O)ccc1O (configuration not stated)	0.02	-1.76
Cc1[nH]c(=O)[nH]c(=O)c1CSCC(=O)OCC(=O)Nc1ccccn1	1.65	-0.78
O=C(C1CC(=O)N(c2ccccc2)C1)N1CCC(c2nc3ccccc3[nH]2)CC1 (configuration not stated)	0.03	0.57
CCCOP(=O)(c1ccc(N(C)C)cc1)C(O)c1ccc(N(C)C)cc1 (configuration not stated)	0.2	-0.65
COCc1nnc(NC(=O)CC(C)C)s1	0.73	0
COc1ccc(C2=NOC(C(=O)Nc3cc(C)on3)C2)cc1 (configuration not stated)	1.48	0.7
CC(=O)Oc1c(C)cc(O)c2ccccc12	0.91	1.29
COc1ccc(S(=O)(=O)NC2CCc3ccccc32)cc1OC (configuration not stated)	1.58	-1.5
Cc1cc(C)cc(OCC(O)CN2CCN(Cc3ccc4c(c3)OCO4)CC2)c1 (configuration not stated)	2.66	0.64
COc1ccc(C(NC(=O)c2cccnc2)c2cc(Cl)c3cccnc3c2O)cc1OC (configuration not stated)	1.03	-0.98
O=C(O)c1ccccc1C(=O)N1CCN(c2ccccc2)CC1	0.28	0.6
CCC1=NN2C(=N)/C(=C\c3ccc(OCCOc4ccc(NC(C)=O)cc4)cc3)C(=O)N=C2S1	1.07	0.03
Oc1ccc(-c2c(-c3ccsc3)sc3ccccc23)cc1	0.67	0.16
COc1cc([N+](=O)[O-])ccc1NC(=O)CSc1n[nH]c(C(C)C)n1	1.37	-0.05
c1ccc(-c2cnnn2-c2ccccc2)cc1	0.42	0.1

Look-ups from above.
Reading of `CCCOP(=O)(c1ccc(N(C)C)cc1)C(O)c1ccc(N(C)C)cc1` (configuration not stated) under KCNQ2 pot: 0.2
Reading of `COc1cc(C2/C(=C(/O)c3ccc(F)cc3)C(=O)C(=O)N2CCCC(=O)O)ccc1O` (configuration not stated) under KCNQ2 pot: 0.02

Following part.
SMILES	KCNQ2 pot	KCNQ2 pot baseline
COC(=O)C(C(=O)Nc1cc(C)on1)C1CCCCCC1 (configuration not stated)	0.55	0.72
Cc1ccc(CSCCC(=O)NCCc2ccc(Cl)cc2)cc1	0.47	-0.09
COC(=O)CN1C(=O)COc2ccc(S(=O)(=O)NCc3ccc(Cl)cc3)cc21	0.2	-2.68
Clc1ccc(Cc2ccc(Cl)nn2)c(Cl)c1	0.27	0.56
COc1ccc(C(=O)c2c[nH]c(C(=O)N=CN(C)C)c2)cc1	1.08	0.17
Cc1ccc(OCCN2C(=O)c3ccccc3C2=O)cc1	0.61	-2.08
CC(Sc1nncs1)C(=O)Nc1ccc2c(c1)OCCO2 (configuration not stated)	0.68	-1.26
COc1ccc(CN2CCC(=O)N([C@H](CO)CC(C)C)CC2)cc1OC	0.63	0.07
Cc1nc2ccc(S(=O)(=O)N(C)CC(=O)N3CCc4ccccc43)cc2s1	0.07	-1.81
Cc1cccc(C(=O)Nc2ccc(C(=O)Nc3ccc(O)cc3)cc2)c1	0.68	0.14
CCOc1ccc(S(=O)(=O)NCCC(=O)OCC(=O)c2ccc(NC(C)=O)cc2)cc1	0.54	0.93
COc1ccc(S(=O)(=O)N(C)c2ccc(C(=O)N3CCC(C(N)=O)CC3)cc2)cc1OC	1.33	0.44
CCCCCC(=O)Nc1ccc(N2CCN(C(=O)c3ccccc3)CC2)cc1	1.02	0.24
CNc1ncnc2sc(-c3ccccc3)cc12	0.27	-0.31
O=C(NCc1ccc(Cl)cc1)N1CCOCC1	0.36	0.11
O=[N+]([O-])c1cc(/C=N/N/C(=N/c2ccccn2)c2ccccn2)ccc1O	0.22	-1.42
S=c1[nH]nc(COc2ccccc2)n1/N=C/C(Cl)=C/c1ccccc1	1.27	-0.08
O=C(CCc1ccccc1)NNc1cc(N2CCCCC2)nc(N2CCCCC2)n1	2.85	0.7
ClCCCc1cn(C[C@H]2CC[C@@H]([C@@H]3CC[C@H](Cn4cc(CCCCl)nn4)O3)O2)nn1	0.92	-0.15
COc1ccccc1CCNC(=O)Cn1c(=O)oc2ccccc21	0.07	-0.58

Ordered by SMILES length (descending): 7 of the compounds above
SMILES	KCNQ2 pot	KCNQ2 pot baseline
COc1ccc(S(=O)(=O)N(C)c2ccc(C(=O)N3CCC(C(N)=O)CC3)cc2)cc1OC	1.33	0.44
COC(=O)CN1C(=O)COc2ccc(S(=O)(=O)NCc3ccc(Cl)cc3)cc21	0.2	-2.68
COc1ccc(CN2CCC(=O)N([C@H](CO)CC(C)C)CC2)cc1OC	0.63	0.07
CCCCCC(=O)Nc1ccc(N2CCN(C(=O)c3ccccc3)CC2)cc1	1.02	0.24
COc1ccc(C(=O)c2c[nH]c(C(=O)N=CN(C)C)c2)cc1	1.08	0.17
COc1ccccc1CCNC(=O)Cn1c(=O)oc2ccccc21	0.07	-0.58
O=C(NCc1ccc(Cl)cc1)N1CCOCC1	0.36	0.11

Additional records follow.
SMILES	KCNQ2 pot	KCNQ2 pot baseline
COc1ccc(CNC(=O)[C@H](Cc2c[nH]c3ccccc23)NC(C)=O)cc1OC	0.04	1.19
CCC1=NN(C(=O)Cc2ccc(OC)cc2)C(O)(C(F)(F)F)C1 (configuration not stated)	0.33	0.69
O=C(c1ccccc1)c1cccc[n+]1[O-]	2.47	-0.02
CS(=O)(=O)N(CC(=O)O)c1ccc(Oc2ccccc2)cc1	0.25	-0.19
COc1ccc(NC(=O)CCn2c(=S)[nH]c3ccccc3c2=O)cc1OC	0.1	0.96
CCN(CC(=O)Nc1ccc2c(c1)CCC2)Cc1nc2ccccc2c(=O)[nH]1	1.41	-0.69
Cc1ccc(C(=O)NC2CCCCCC2)o1	1.03	0.05
COc1ccc(NC(=O)N2CCCC(c3nc(-c4ccc(OC)cc4)no3)C2)cc1 (configuration not stated)	0.02	-0.67
COc1cccc(CN(C)Cc2cc(=O)oc3cc(O)c(Cl)cc23)c1	0.06	0.28
Cc1nn(CCc2n[nH]c(=S)n2C)c(C)c1Br	0.61	0.79
Cc1ccc(OCC(=O)Nc2ccc(S(=O)(=O)Nc3ccccn3)cc2)c(C)c1	1.2	0.42
O=C(Nc1nc2ccccc2[nH]1)c1cccc(Cl)c1	0.53	0.73
N=c1c(C(=O)NC2CCCCC2)cc2c(=O)n3ccccc3nc2n1CC1CCCO1 (configuration not stated)	0.71	1.08
OCC[C@@H]1C[C@H](O)[C@@H](O)[C@]2(OCc3ccccc32)O1	2.99	0.02
O=C(COC(=O)c1ccc(O)cc1)Nc1cccc(S(=O)(=O)NC2=NCCCCC2)c1	1.24	0.04
CCCN1C2CCCC1CC(NC(=O)c1ccc(C(C)(C)C)cc1)C2 (configuration not stated)	0.54	-0.45
COc1ccccc1-c1nc(NC(C)=O)n[nH]1	0.89	0.43
COc1cc(OC)cc(C(=O)Nc2ccc([N+](=O)[O-])cn2)c1	1.72	0.21
CCN(CC)CCCN(Cc1cc2cc(OC)c(OC)cc2[nH]c1=O)C(=O)Nc1ccccc1	1.84	0.91
COc1cc2c3c(c1)C(C)CC(C)(C)N3C(=O)C2=O (configuration not stated)	0.16	1.08
NC1=NC(=O)C2(COC(c3cccc([N+](=O)[O-])c3)OC2)S1 (configuration not stated)	0.2	0.18
CCOC(=O)c1ccc(S(=O)(=O)NNC(=O)COc2cccc(C)c2)cc1	1.51	-0.4
CC(=O)N1CCN(C(c2ccccc2)c2ccccc2)CC1	0.35	-0.14
CCOc1cc(N2C(=O)CC3CS(=O)(=O)CC32)c(OCC)cc1NC(=O)c1ccccc1 (configuration not stated)	0.05	1.12
O=C(Nc1cc(Cl)ccc1O)c1cc(-c2ccco2)on1	0.34	-4.43
Clc1ccc(-c2nc(Cc3ccccc3Cl)no2)cc1	0.79	-0.55
CCN1CCN(CC(O)COc2ccc(Cl)cc2)CC1 (configuration not stated)	0.83	0.83
O=C(NCCN1C(=O)S/C(=C\c2cccnc2)C1=O)c1cccc(OC(F)F)c1	1.76	-1.11
CCOC(=O)c1c(NC(=S)NCCc2ccccc2)sc2c1CC(C(C)C)OC2 (configuration not stated)	7.54*	-0.73*
COc1ccc(N(CC(=O)NCCc2ccccc2)C(=O)CCC(=O)Nc2nccs2)cc1	0.29	-0.72
COC(=O)c1nc(N)sc1-c1ccc(OC)cc1	1.31	0.35
Cc1cc(C)c2oc(C(=O)Nc3ccc(S(=O)(=O)N4CCC(C)CC4)cc3)cc(=O)c2c1	0.79	0.45
O=C(CCNC(=O)Cn1ccc2ccccc2c1=O)NCC1CCCC1c1ccccc1 (configuration not stated)	0.18	1.53
COc1cccc(C2/C(=C(\O)c3ccc4c(c3)OCCO4)C(=O)C(=O)N2CCCN2CCOCC2)c1OC (configuration not stated)	2.01	-0.51
CCN(CC)C(=O)C(=O)N/N=C/c1cccs1	0.11	0.83

Screening results: PubChem BioAssay, Johns Hopkins Ion Channel Center
